BJeLR lethal – MLPCN primary cell-based screen for lethality selective to Ras in HRASV12 cells. inhibition, % (no concentration beside the values). BJeLR (HRASV12) viability, CellTiter-Glo ATP luminescence, 48 h; reference of the scale not given here. 0.17% of 300,000 active;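 active means replicate mean above 50%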;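 further: 50 nL library stock added to about 25 µL; numbers are from one replicate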
ugtP null kill – growth inhibition of ugtP-null S. aureus, primary screen, RN4220 ugtP deletion, OD600 | 0.54% of 330,000 active | growth inhibition, % (test concentration not listed) | 16 h; some inactives read as strong as hits;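 active means z-score under -3 and OD600 up to 0.15 on both plates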;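 further: plate controls were untreated wells for no effect and antibiotic for full effect; wells of about 80 µL received 100 nL stock; the first replicate is given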
Bead autofluor – counter-screen for toxin protease inhibitors: compound fluorescence; 3.1% of 360,000 active; AID 624483; fluorescence intensity (test concentration not listed); compound autofluorescence counterscreen, microsphere flow cytometry; stronger effect = higher value;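 active means at least 3 SD above the mean of all compounds, about 16000 in these data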;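 further: 100 nL of 1 mM stock went into each well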
PrP 5UTR inh – inhibition of PrP 5' UTR reporter expression. cell-based PrP 5' UTR mRNA reporter, plate reader. inhibition, % (concentration not given with the values). 0.35% of 340,000 active;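 active means every replicate at 50% or more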;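 further: 0 = median of the neutral control wells; tested in H4 reporter cells; numbers are from one replicate; inactives centre near -14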
Mtb hypoxia rep – PubChem AID 1159583; M. tuberculosis hypoxia-regulated fluorescent reporter, fluorescence; fluorescence inhibition, % (test concentration not listed); 0.1% of 300,000 active;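 active means 35 to 45% if threefold the growth effect, above 45% if 1.5-fold the growth effect; inactive means the rest, general growth blockers included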;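 further: wells of about 50 µL received 100 nL stock; 0% = vehicle wells and 100% = reference inhibitor wells; whole bacteria with a GFP reporter of the hypoxia response; strong numbers were not always called active; many hits fall short of the cut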
Sa RN4220 lethal – growth inhibition of S. aureus RN4220, primary screen, OD600. AID 1259311, 2017. 0.33% of 330,000 active. inhibition, % (concentration not given with the values). 16 h;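 active means z-score of -3 or lower and OD600 up to 0.18 on both plates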;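 further: plate controls were untreated cells for no effect and reference antibiotic for full effect; stock transfer was 100 nL into about 80 µL; one replicate is shown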
Mtb hypoxia rep growth – further read-out of Mtb hypoxia rep, marked with its call; growth inhibition, %; measured here: M. tuberculosis growth (absorbance);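 0% = vehicle and 100% = reference antibiotic; read after six days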
Starred values were filed as active, the others as inactive; . = not tested or not shown. An unsorted share of the library; any-hit rate near 4%.

Molecule,Bead autofluor,ugtP null kill,Mtb hypoxia rep growth,PrP 5UTR inh,Sa RN4220 lethal,Mtb hypoxia rep,BJeLR lethal
CCC(=O)Nc1ccc(S(=O)(=O)Nc2ccccn2)cc1,3591,2.9,3.1,5.1,7.7,10.6,7.0
O=C(CN1C(=O)c2ccccc2C1=O)Nc1cc(C(=O)O)cc(C(=O)O)c1,3631,2.0,0.8,-18.8,2.3,-5.0,-8.5
CCc1ccc(NC(=O)C(=O)NN=C(C)CC(=O)NCc2ccc(Cl)cc2)cc1,.,5.7,9.4,.,3.2,-2.9,.
Cc1nnsc1C(=O)N1CCCC(N2CCN(c3ccc(F)cc3)CC2)C1 (configuration not stated),5628,3.2,5.9,-0.8,0.8,1.6,-10.0
Nn1c(SCC(=O)Nc2ccc(S(N)(=O)=O)cc2)nnc1-c1ccco1,7188,7.7,6.4,-7.9,3.9,7.9,2.0
COC(=O)COc1ccc(/C=C2\C(=O)NC(=S)N(c3ccc(C)cc3)C2=O)cc1OC,3575,2.9,7.0,-12.2,4.2,-8.2,7.3
Cc1cc2ncn(C(=O)N3CCCCCC3)c2cc1C,3827,0.9,.,-13.9,2.8,.,1.6
O=C(CC1(O)C(=O)Nc2ccccc21)c1cccc(-n2cccc2)c1 (configuration not stated),3317,-1.9,9.8,-0.2,4.6,7.6,-8.9
COc1ccc(-c2noc(CCC(=O)NCCc3ccccc3)n2)cc1,3869,-0.9,-0.3,.,-1.3,10.5,-3.5
CC(=O)Nc1ccc(NS(=O)(=O)c2cc(Cl)ccc2Cl)cc1,4313,7.2,1.2,-18.8,3.9,10.7,14.8
CC(C)Oc1ccc(N2CC(C(=O)NC3=NCCS3)CC2=O)cc1 (configuration not stated),3391,-1.1,3.7,-15.8,4.2,8.8,6.6
NC(=O)c1c(NC(=O)c2cccc(N3C(=O)CCC3=O)c2)sc2c1CCCCC2,6655,4.3,1.0,14.9,0.6,8.8,-19.6
Cc1ccc(C)c(N(CC(=O)N/N=C/c2ccc(-c3ccc([N+](=O)[O-])cc3)o2)S(=O)(=O)c2ccccc2)c1,5236,.,.,-3.9,.,.,-5.0
Nc1ccccc1SCC(=O)Nc1ccc2c(c1)OCCO2,3868,7.0,0.6,-25.7,0.6,-7.5,-7.5
COc1cc2c(cc1OC)CN(c1nc(CN3CCCC3)nc3sc(C)c(C)c13)CC2,5350,10.8,11.6,-3.3,-5.9,-4.0,-36.5
O=C(CN1C(=O)C2CCCCC2C1=O)Nc1nc(-c2ccccn2)cs1 (configuration not stated),2959,-14.2,-4.9,-5.7,5.7,-2.8,1.5
CN1Cc2c(N3CCOCC3)nc3sc(C#N)c(N)c3c2CC1(C)C,4997,15.3,2.1,-27.4,1.9,9.6,0.9
C=CCn1cc(C(=O)N2CCN(c3ccccc3)CC2)c(=O)c2cc(S(=O)(=O)N3CCCC3)ccc21,6028,4.5,-5.5,4.5,2.3,3.9,-7.0
Cc1ccc(C)c(S(=O)(=O)N2CCCOC2CNC(=O)C(=O)NCc2ccco2)c1 (configuration not stated),2012,11.1,0.1,-26.2,5.6,3.2,-1.6
Cc1nn(CC(=O)Nc2ccc(C(=O)N(C)C)cc2)c(=O)c2ccccc12,19106*,1.6,4.3,-15.3,-1.1,6.9,-3.5
COc1ccc2c(=O)c(-c3ccccc3)c(C)oc2c1,15576,13.2,10.2,-20.3,10.5,10.7,2.8
COc1ccc(-n2nnnc2SCC(=O)c2ccc(O)c(O)c2)cc1,3645,2.1,.,-18.6,6.2,.,-8.5
COc1ccccc1N1CCN(C(=O)c2cc(S(=O)(=O)N3CCCCC3)ccc2C)CC1,4322,5.3,7.0,-21.3,7.6,9.7,.
CCCOc1ccc(N2CC(C(=O)Nc3ccccc3F)CC2=O)cc1 (configuration not stated),3422,-6.2,9.9,-20.8,-17.1,8.8,6.4
Cc1cccc(Nc2nc(-c3cccs3)cs2)n1,2519,70.1,11.3,-118.7,-15.0,11.9,-0.8
Cc1ccccc1OCCC(=O)OCC(=O)NCCc1ccccc1,3900,8.8,-7.4,-2.2,4.2,-1.8,-0.3
Cc1cccc(N2CCN(C(=O)C3CC(=O)N(c4ccc5c(c4)OCCO5)C3)CC2C)c1 (configuration not stated),4336,1.9,8.6,-1.0,4.7,4.8,.
Cc1cccc2cc(CN(Cc3cccnc3)C(=O)c3cccs3)c3nnnn3c12,.,6.2,-7.6,.,1.7,-7.3,3.7
COc1cc(C=NNC(=O)c2cccc([N+](=O)[O-])c2)ccc1OCc1ccc(C)cc1,.,-4.3,2.3,.,3.2,2.0,.
COc1ccc(S(=O)(=O)N(C)C[C@H]2Oc3c(NC(=O)NC(C)C)cccc3C(=O)N([C@H](C)CO)C[C@@H]2C)cc1,3750,4.3,10.3,-7.1,3.1,-3.9,.
CCOc1cc(/C=C2\C(=O)N(Cc3ccco3)C(C)=C2C(=O)OC)ccc1O,3793,1.6,7.7,10.3,-2.9,8.0,-0.5
COc1ccc(-c2nn(CCC(=O)O)cc2/C=N/NC(N)=S)cc1,4303,.,.,-0.5,.,.,-1.2
CCOc1ccc(C2C(C#N)=C(N)N(N(C)C)C3=C2C(=O)CC(C)(C)C3)cc1 (configuration not stated),3195,6.1,-1.5,-4.3,0.5,8.6,8.9
COc1ccc(NP(=O)(Oc2ccc(Cl)cc2)Oc2ccc(Cl)cc2)cc1OC,10857,-26.3,5.2,2.4,-20.4,6.6,-16.3
COc1ccc(OCCCC(=O)Nc2cc(S(=O)(=O)N3CCCCC3)ccc2C)cc1,4674,-0.3,3.0,-20.4,2.8,5.0,.
O=[N+]([O-])[N-][n+]1cnn(Cc2ccccc2)c1,3314,3.3,3.0,6.9,6.3,14.8,10.1
CCC(C)c1ccc(NC(=O)c2ccco2)cc1 (configuration not stated),4183,1.1,0.5,40.0,4.9,3.4,0.1
Cc1ccc(NN2C(=O)C=C(c3ccccc3)C2=O)cc1,3613,-1.8,5.4,.,5.7,-0.9,-0.3
CC1(C(=O)OCC(=O)Nc2cccc(S(=O)(=O)NC3=NCCCCC3)c2)CC1(Cl)Cl (configuration not stated),3305,5.6,-1.2,-9.6,2.6,-7.6,7.3
CSC1=NC(=O)/C(=C/c2ccc(SC)cc2)S1,4410,5.0,1.5,-42.1,11.6,-5.1,14.0
COCCNC(=O)C(OC(=O)c1ccco1)c1ccccc1Cl (configuration not stated),3333,7.7,5.0,-12.0,3.9,11.0,17.1
COc1ccc2oc(C(=O)NC3CCCCC3)c(C)c2c1,6292,-13.4,11.7,-92.6,-1.0,-6.2,1.5
O=C(NCC1CCCO1)c1ccc2nc(N3CCCCC3)sc2c1 (configuration not stated),5003,-6.1,10.4,-52.9,6.3,14.6,-11.4
Cc1c(N)cc(C(=O)N2CCOCC2)cc1[N+](=O)[O-],9675,2.6,1.5,-21.8,2.4,7.5,4.1
Cc1nonc1C1CCCN1C(=O)c1cc(COc2ccc(F)cc2F)on1 (configuration not stated),4499,-4.0,0.7,-77.0,8.2,-0.4,30.3
O=C(O)CSCC(=O)NCc1ccc(Cl)cc1,1992,7.8,-3.3,-4.2,3.5,0.7,-14.3
CCOc1ccc(C(O)Cc2nc3ccccc3n2C)cc1 (configuration not stated),5901,-4.3,10.5,-36.7,4.5,-3.6,-2.2
COc1ccc(C(=O)N2CCN(c3c(C)cccc3C)CC2)cc1OC,4662,7.7,.,-25.8,1.4,.,-2.0
CCc1nnc(NS(=O)(=O)c2ccc(NC(=O)c3ccccc3)cc2)s1,4172,1.3,7.3,3.9,1.3,4.6,2.9
Cc1cc(NC(=O)c2ccccc2)nc2c1c(=O)oc1ccccc12,4123,5.7,18.2,-19.2,3.9,1.2,-1.4

4 compounds picked at random from the list so far:
Molecule,Bead autofluor,ugtP null kill,Mtb hypoxia rep growth,PrP 5UTR inh,Sa RN4220 lethal,Mtb hypoxia rep,BJeLR lethal
CCc1nnc(NS(=O)(=O)c2ccc(NC(=O)c3ccccc3)cc2)s1,4172,1.3,7.3,3.9,1.3,4.6,2.9
COc1ccc(S(=O)(=O)N(C)C[C@H]2Oc3c(NC(=O)NC(C)C)cccc3C(=O)N([C@H](C)CO)C[C@@H]2C)cc1,3750,4.3,10.3,-7.1,3.1,-3.9,.
COc1ccc(OCCCC(=O)Nc2cc(S(=O)(=O)N3CCCCC3)ccc2C)cc1,4674,-0.3,3.0,-20.4,2.8,5.0,.
O=C(NCC1CCCO1)c1ccc2nc(N3CCCCC3)sc2c1 (configuration not stated),5003,-6.1,10.4,-52.9,6.3,14.6,-11.4

Further entries.
Molecule,Bead autofluor,ugtP null kill,Mtb hypoxia rep growth,PrP 5UTR inh,Sa RN4220 lethal,Mtb hypoxia rep,BJeLR lethal
Cc1ccc(C(C(=O)NCc2ccc(F)cc2)N(C(=O)c2csnn2)C2CC2)o1 (configuration not stated),10602,0.1,8.5,-15.8,4.1,4.2,-6.4
Cc1cc(C)c2c(=O)[nH]c(=O)n(Cc3ccccc3)c2n1,2972,-5.9,7.5,-4.7,1.3,3.6,-6.8
Cc1ccc(O)c(-c2[nH]ncc2C(=O)c2ccc(Br)cc2)c1,3165,-0.8,-3.9,-3.3,5.5,1.9,6.8
COc1cc(C#N)ccc1OC(=O)C1CCN(C(=O)c2ccc(F)cc2)CC1,6023,5.4,0.0,-20.1,1.4,0.1,-1.7
CCN(CC(=O)Nc1c(F)cccc1F)C(=O)/C=C/c1ccc(C)cc1,8607,-6.9,8.6,-39.2,-0.7,4.7,.
CC(C)CNC(=O)C(=O)NNC(=O)c1ccco1,4203,-2.2,3.0,-19.5,0.0,7.1,-10.3
O=C(Nc1ccc(-c2nc3cc(Cl)ccc3c(=O)o2)cc1)c1ccco1,7625,1.0,-1.8,-29.6,1.0,9.9,11.2
O=C(Cc1ccccc1)Nc1scc(-c2ccccc2)c1C(=O)N1CCOCC1,3615,1.5,.,-22.9,-0.3,.,2.7
CCCCn1c(O)c(C(CC)=NC(C)c2ccccc2)c(=O)[nH]c1=O (configuration not stated),10962,-3.1,7.8,-6.4,-3.0,9.8,-11.8
Cc1ccc(-c2nnc(Nc3ccc(C(=O)N(C)C)cc3)c3ccccc23)cc1S(=O)(=O)NC(C)(C)CO,.,3.7,13.5,-27.8,2.8,9.2,5.5
CN1CC(=O)N(CC(=O)Nc2ccc(Cl)c(C(F)(F)F)c2)C1=O,9903,-0.9,3.4,8.6,5.7,0.8,-8.3
COC(=O)C1CC1C(NC(=O)c1cnccn1)c1ccccc1 (configuration not stated),.,-1.1,7.2,.,4.4,12.3,.
O=C(COc1ccc(Cl)cc1Cl)NN=C1c2ccccc2-c2ccccc21,2115,.,.,-1.5,.,.,-2.6
O=C(CSc1nnc(CNC(=O)C23CC4CC(CC(C4)C2)C3)n1-c1ccc(F)cc1)Nc1ccc(F)cc1,2158,2.9,9.1,-9.7,8.5,-3.8,-0.1
CCc1nnc2c3cnn(-c4ccccc4)c3ncn12,4676,-1.6,6.3,-55.7,6.0,8.4,-0.9
CC(C)(C)[C@@H]1C=C(C(=O)O)[C@H](c2ccc(Cl)cc2)N1S(=O)(=O)c1ccccc1,2969,8.2,-3.1,5.3,8.7,-3.3,.
CCCCOC(=O)Nc1sc2nc(C)cc(C)c2c1-n1cccc1,2588,14.0,.,-4.9,0.1,.,3.1
CCOC(=O)N1CCN(C(=O)c2cn(C)c(=O)c3c2c2ccccc2n3C)CC1,22295*,-0.9,2.8,2.8,3.6,-6.8,-21.7
O=C(NCc1ccc(Cl)cc1)C1CCN(S(=O)(=O)c2cccnc2)CC1,5391,4.0,5.7,-7.7,3.0,11.2,-4.3
Cc1ccc2sc(-c3ccc(NC(=O)/C=C\C(=O)O)cc3)nc2c1,2365,.,.,-108.4,.,.,-8.2
COc1cc(=O)n(C)c2c(OCC3OC(C)(C)OC3(C)C)cccc12 (configuration not stated),4101,0.7,.,3.2,0.6,.,8.1
CC(C)CC1NC(=S)N(Cc2ccccc2)C1=O (configuration not stated),2273,2.1,1.4,-19.4,2.9,8.9,0.8
Cc1cccc(N2CCN(Cc3nc(-c4cccc(Cl)c4)oc3C)CC2)n1,2085,10.8,1.8,-11.7,0.7,12.6,-11.0
CCN1CCN(C(=S)NC(=O)c2cccc(Br)c2)CC1,8689,-6.2,0.1,-8.7,-2.7,-5.7,.

High-throughput results (PubChem)
